Sfp inh: inhibitors of Bacillus subtilis Sfp phosphopantetheinyl transferase | Biochemical Sfp PPTase activity, qHTS | Q9F4F7 | 310,000 tested, 3.5% active | Potency, µM, for the others: max response, negative = inhibition, most hits filed as inhibitors; active = well fitted inhibition curve with a large enough effect; inconclusive = small, poorly fitted or top-dose-only effect, or another doubt; inactive = no such curve, though single readings can be large or run the other way;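 note: the enzyme is Sfp with the accession as filed and its product quenches rhodamine fluorescence; potency is the fitted concentration of half-maximal effect; 0% = enzyme reaction without inhibitor and -100% = no enzyme wells; top concentration of the series not given in the record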
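Step 1, compound plus 15 nM Sfp-PPTase, 15 min, room temperature. Step 2, add rhodamine-CoA (5 uM) and BHQ-2-YbbR (12.5 uM). Step 3, read 525/598 nm fluorescence at 0 and 30 min.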
Menin-MLL FL inh: inhibitors of human menin-MLL interaction, wild-type MLL peptide. Fluorescence polarization, fluorescein-MLL peptide displacement from menin. FP activity change, % at 61.4 µM. 290,000 tested, under 10 active. AID 1766; inconclusive = falling polarisation curve, or a change in total fluorescence; inactive = total fluorescence flat and polarisation flat or rising; no compound was filed as active; the % refers to the polarisation; negative = inhibition;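 note: % of control where 0% means no effect; inhibitors lower the polarisation; unlabelled MLL peptide was the positive control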
PINK1 modulator: modulators of PINK1 expression; PINK1 immunofluorescence, high-content cytometry, 24 h; Potency, µM (top dose mostly 76.6 µM), without a hit: at the top dose activation (PINK1 increase), usual class: activators; 410,000 tested, 0.2% active; AID 624263; active = well fitted activation curve with a large enough effect; inconclusive = small, poorly fitted or top-dose-only effect; inactive = flat fitted curve, though single readings scatter; cell line not stated here;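 note: potency is the fitted concentration of half-maximal effect; % of control where 0% means no effect; nearly all actives have a fitted effect of over 65% in size; a mitochondrial uncoupler was the plate control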
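PINK1 protein level read as immunofluorescence by microplate cytometer in a fixed, stained stable cell line after 24 h exposure to five compound concentrations, with CCCP as control.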
TRPV1 PAM: human TRPV1 potentiation; 320,000 tested, 0.02% active; TRPV1-expressing cells, Fluo-8 calcium influx, capsaicin EC20 potentiation; host cell line not named in the record; control for the full effect not named in the record; Q8NER1; potentiation, % at 8.33 µM; active means potentiation above 80%; inconclusive means 30% to 80%; inactive means below 30%; note: 0% is about no effect
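Cells expressing TRPV1 were dye-loaded with Fluo-8 and read kinetically: 10 s baseline, 3 min after compound (agonist portion), then 2 min after EC20 capsaicin (allosteric enhancer portion). Calcium-bound dye fluorescence at 480/520 nm.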
TRPML1 ag: activates the human TRPML1 channel | Q9GZU1 | TRPML1-expressing cells, Ca2+ dye fluorescence, FDSS; host cell line not named in the record; reference of the full effect not given here | activation, % (concentration not given with the values) | 410,000 tested, 0.12% active | AID 624414; in the data active = activation above about 50%; inconclusive = about 30% to 50%; inactive = below about 30%; note: 0% is about no effect; the text of the record puts the active cut at 80%
Target sequence (Q9GZU1 whole entry, looked up): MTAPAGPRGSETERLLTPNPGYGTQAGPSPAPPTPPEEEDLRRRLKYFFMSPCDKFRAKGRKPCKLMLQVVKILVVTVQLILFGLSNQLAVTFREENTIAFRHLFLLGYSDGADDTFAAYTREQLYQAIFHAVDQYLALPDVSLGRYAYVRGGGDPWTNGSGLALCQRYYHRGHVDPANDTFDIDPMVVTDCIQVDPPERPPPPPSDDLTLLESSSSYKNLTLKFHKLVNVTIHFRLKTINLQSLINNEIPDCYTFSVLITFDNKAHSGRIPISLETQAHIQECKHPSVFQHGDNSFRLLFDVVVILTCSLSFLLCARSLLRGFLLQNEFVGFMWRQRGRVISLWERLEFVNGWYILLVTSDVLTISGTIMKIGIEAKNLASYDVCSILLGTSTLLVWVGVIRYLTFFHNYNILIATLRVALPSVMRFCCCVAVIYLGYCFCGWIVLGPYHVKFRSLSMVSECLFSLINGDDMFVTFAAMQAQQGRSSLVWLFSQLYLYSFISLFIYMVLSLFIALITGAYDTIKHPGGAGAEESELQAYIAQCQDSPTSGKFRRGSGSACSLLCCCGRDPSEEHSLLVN
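In this qHTS format, compounds were pin-transferred onto Ca8-dye-loaded TRPML1-DL cells induced with Tet overnight, and intracellular Ca2+ fluorescence was recorded kinetically for 110 s after a 10 s baseline. A subsequent 4uM final 54-4 (EC80) addition followed by a second 110 s read served as the antagonist phase.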
ClpP mod: qHTS Assay for Activators of ClpP | ATP-dependent Clp protease proteolytic subunit (Bacillus subtilis (strain 168)), P80244 | purified B. subtilis ClpP, FRET peptide cleavage, 20 min | 340,000 tested, 1.9% active | Potency, µM (highest dose often 57.5 µM), without a hit: at the highest dose activity change, negative = active; active = well fitted falling curve with a large enough effect; inconclusive = small, poorly fitted or top-dose-only effect; inactive = no such curve, though single readings can be large or run the other way; note: potency is the fitted concentration of half-maximal effect; the source files actives as falling curves though it sought activators and does not explain the sign; nearly all actives have a fitted effect of over 65% in size; many hits overshoot -100%
Target sequence (P80244 whole entry, looked up): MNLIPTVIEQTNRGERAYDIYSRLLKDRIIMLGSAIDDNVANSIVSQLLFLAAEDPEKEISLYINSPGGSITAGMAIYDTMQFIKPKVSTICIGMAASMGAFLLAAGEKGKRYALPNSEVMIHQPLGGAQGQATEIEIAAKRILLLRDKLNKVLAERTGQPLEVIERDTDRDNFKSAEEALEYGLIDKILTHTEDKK
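Purified B. subtilis ClpP, 10 microg/mL final in Tris/HCl pH8 with KCl, BSA, glycerol and Tween-20, cleaved an Abz/nitrotyrosine-quenched decapeptide. Fluorescence (ex 320, em 430) was read at 0 and 20 min at room temperature. Delta was normalized to 5.8 microM ADEP and DMSO/no-enzyme controls.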
TRPML1 inh: blocks the human TRPML1 channel; Q9GZU1; activity change, negative = inhibition, % (concentration not given with the values); AID 624415; 390,000 tested, 0.02% active; TRPML1-inducible cells, Ca2+ dye fluorescence, FDSS; hits give low values; inhibition of EC80 agonist-evoked calcium signal; in the data active means activity change below about -50%; inconclusive means about -30% to -50%; inactive means above about -30%;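 note: stimulus is agonist 54-4 at its EC80 concentration; % is set by controls: 0 for no effect and ±100 for the full control effect; compound concentration not given in the record; the text of the record puts the active cut at -80%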
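Calcium fluorescence in TRPML1-DL cells induced overnight with Tet: a 110 s read after compound pin addition, then a 110 s antagonist read after challenge with 54-4 at 4 uM final (EC80).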
* hit, by the source's call; u = inconclusive; x = no result given; & = joins results of further samples; [ ] = remark or other dose.

SMILES | ClpP mod | PINK1 modulator | Menin-MLL FL inh | TRPML1 inh | TRPV1 PAM | Sfp inh | TRPML1 ag
CC(C)(Oc1ccc(Br)cc1)C(=O)N1CCc2ccccc21 | -2.0% | 2.9%[38.3 µM] | 4.0 | 5 | -6 | -6% | -0.3
COc1cccc(/C=C2\C=C(c3ccc(C)cc3)OC2=O)c1OC(C)=O | x | 1.4% | 0.9 | 19 | 2 | -6% | 4.6
CCN(CC)S(=O)(=O)c1ccc(/C=C/C(=O)OCC(=O)NCc2cccs2)cc1 | 0.7% | -1.2% | x | 8 | -12 | x | 1.0
Cc1csc(NC(=O)CSc2nnc(C)c(=O)n2N)n1 | x | -0.6% | 7.7 | 2 | -6 | -1% | -0.5
Cc1ccc(CC2CC(=O)N(c3ccc(C)cc3)C2=O)cc1 (configuration not stated) | -0.3% | 0.1% | 0.3 | -15 | -1 | 11% | 0.5
CCN(C(=O)CSc1nnc(COc2ccccc2F)n1N)C1CCS(=O)(=O)C1 (configuration not stated) | 1.3% | 0.3% | -0.3 | -7 | -1 | 10% | -0.4
COc1ccc(S(=O)(=O)Nc2cccc3ccccc23)cc1 | x | 6.5% | x | -13 | 0 | x | 2.1
COc1ccccc1OCc1nnc(SCC(=O)NCc2ccco2)n1Cc1ccco1 | -1.2% | 0.5% | u | -5 | 23 | u | 1.2
COc1ccc(CC(NC(C)=O)C(=O)NC2CCN(c3c4c(nc5ncnn35)CCC4)CC2)cc1 (configuration not stated) | 1.3% | -1.3% | -0.2 | 25 | 8 | -2% | 0.0
Cc1[nH]c2ccccc2c1C(=O)CNc1nccs1 | -1.6% | -1.2% | -2.3 | 19 | 12 | u | 0.8
Cc1nnc(N(C)C(=O)c2ccncc2)s1 | 0.5% | 0.6% | 0.7 | 13 | -2 | 11% | 0.2
COc1ccc(CN2C(=O)c3ccccc3C2=O)cc1C(=O)Nc1ccc(C)cc1C | -6.7% | 11% | 1.1 | 6 | 20 | 7% | -0.4
CCn1cc(C(=O)NCCC(=O)OC)c(=O)c2cc3c(cc21)OCO3 | -17% | -2.0% | 0.0 | 4 | -4 | 3% | 2.2
CN1CCCN(C(=O)c2cc3c(s2)CCCC3)CC1 | -3.3% | 1.4% | x | -6 | 1 | 4% | -0.3
CC(C)(CCc1ccccn1)C(=O)C(CCc1ccccn1)CCc1ccccn1 | 1.1% | -0.4% | x | 7 | x | x | 0.5
COc1ccc(S(=O)(=O)N2CCN(C(=O)[C@@H]3CCC(=O)N3C3OC(=O)c4ccccc43)CC2)cc1 (some centres not stated) | 0.6% | 0.1% | 2.4 | -3 | -1 | 16% | 0.3
CC(C)N1CCC(NC(=O)Nc2ccccc2)CC1 | x | 1.4% | 2.2 | 28 | 4 | 13% | -0.3
Cc1cccc(C)c1OCC(=O)Nc1cccc(S(=O)(=O)N2CCCCCC2)c1 | -1.3% | 1.0% | x | 0 | x | x | -0.4
Cc1ccc(C(=O)NC(=S)Nc2ccccc2C)cc1 | x | 1.3% | 0.1 | 17 | 1 | u | 3.9
COc1ccc(CC(C)NS(=O)(=O)c2ccc3c(c2)CCN3S(C)(=O)=O)cc1OC (configuration not stated) | -2.0%&-1.9% | 0.5%&-1.1% | x | -18&7 | 8 | 11% | -0.9&0.5
Cc1nn(C)c(C)c1NC(=O)CCl | x | 4.7% | -2.6 | 6 | -3 | 7% | 1.3
COc1ccc(NC(=O)Nc2ccc(OC)cc2)cc1 | -4.3% | 7.1% | -1.0 | 5 | 3 | 19% | -1.6
COCCN1C[C@@H](CO)O[C@@H](n2cnc3c(NCC(C)C)ncnc32)C1 | 1.6% | 0.5% | x | x | x | x | -0.2
Cc1cc2[nH]c(=O)c(=O)[nH]c2cc1S(=O)(=O)Nc1ccccc1F | -7.0% | 5.4% | -0.5 | -20 | -19 | 2% | 3.0
O=C(CCN1CCCC1=O)NC1CCCc2c1cnn2-c1ccccc1F (configuration not stated) | 1.7% | 1.7% | -0.4 | 18 | 3 | 5% | 0.3

SMILES | ClpP mod | PINK1 modulator | Menin-MLL FL inh | TRPML1 inh | TRPV1 PAM | Sfp inh | TRPML1 ag
O=C(Cn1cc([N+](=O)[O-])cn1)N1CCN(c2ccccc2)CC1 | -1.1% | -1.9% | -4.8 | -2 | 0 | 0% | 0.5
O=C(COC(=O)CCN1C(=O)c2ccccc2C1=O)Nc1ccccc1[N+](=O)[O-] | -1.9% | 2.2% | x | 0 | 3 | x | -0.2
COc1ccccc1N(C1=NCCCS1)S(=O)(=O)c1ccc(C(C)(C)C)cc1 | -0.4% | -1.1% | -0.7 | 11 | -5 | 6% | 5.2
CCOC(=O)c1cc(CC)sc1NC(=O)CN1C(=O)C(=O)N(CC(C)C)C1=O | -0.3% | -0.2% | x | -1 | 5 | x | -0.2
CN(c1ccccc1C(=O)Nc1ccc(S(=O)(=O)N2CCOCC2)cc1)S(=O)(=O)c1ccccc1 | 0.0% | -0.2% | 1.5 | -3 | -10 | -1% | 0.5
Cc1cccc(Cn2c(Cc3ccccc3)nc3ccccc32)c1 | 1.1%&0.4% | 5.8%&6.9% | -0.7 | 26&-4 | -10 | 56µM* | 3.7&0.2
N#Cc1ccccc1NC(=O)CN1CCN(c2ccccn2)CC1 | x | 2.9% | 0.1 | 9 | -1 | 17% | -0.4
CCOc1cccc(C(=O)N(Cc2ccc(F)cc2)C2CCS(=O)(=O)C2)c1 (configuration not stated) | 0.9% | 3.3%[38.3 µM] | 1.9 | -21 | -4 | 12% | 0.6
CN(CC(=O)Nc1cccc(F)c1)CC(=O)Nc1cccc(S(=O)(=O)N2CCCCCC2)c1 | 1.1% | u | 2.4 | -3 | 11 | 26% | -0.9
O=[N+]([O-])c1cc(-c2cccnc2)n[nH]1 | x | 1.4% | x | -12 | x | x | -0.8
C[C@H]1CN([C@@H](C)CO)C(=O)CCCn2cc(nn2)CO[C@@H]1CN(C)C(=O)Cc1ccccc1 | -3.3% | 1.9% | x | 23 | x | x | 0.7
COc1ccccc1C(=O)N/N=C/C(C)=C/c1ccccc1 | 0.0% | -0.2% | -1.1 | 5 | 7 | 2% | -1.1
Cc1ccc2ccc(C(Nc3cccc(C(F)(F)F)c3)c3cccnc3)c(O)c2n1 (configuration not stated) | 2.7% | -1.7% | -4.2 | -21 | -6 | 14% | 3.3
Cc1cccc(NC(=O)COC(=O)CSc2ccccc2)c1C | -0.9% | 1.0% | x | 22 | -21 | x | 0.1
COc1ccc(/C=C/C(=O)c2ccc(OC)cc2O)cc1 | -4.1% | 2.8% | 2.4[11.7 µM] | 28 | 4 | 5%&-25% | 3.0
Cc1cc(C)c(C#N)c(SC(C(=O)NC(C)(C)C)c2ccccc2)n1 (configuration not stated) | 1.1% | 1.8% | 2.9 | -16 | -4 | 22% | 0.6
Cc1ccc(CSc2ncc(Cl)c(C(=O)Oc3ccccc3F)n2)cc1 | 4.4% | -0.3% | x | -7 | x | x | -0.7
COc1ccc(N2CCN(S(=O)(=O)CCNC(=O)COc3ccccc3C)CC2)cc1 | -0.2% | -0.7% | x | 29 | -2 | x | -0.4
O=C(Nc1ccc(N2CCCCC2)cc1)c1ccccc1 | -0.2% | x | 3.8 | -14 | 14 | -1% | 0.0
CCOc1ccc(-c2cc(-c3nc(-c4cc(OC)c(OC)c(OC)c4)no3)[nH]n2)cc1 | -9.2% | -0.9% | x | -2 | x | x | 0.4
COc1ccc(CCNC(=O)c2ccc(OCC(=O)N3CCOCC3)c(OC)c2)cc1OC | -5.2% | 2.6% | 1.8 | -1 | 3 | 13% | 0.5
O=S(=O)(c1ccc(NC(=S)NN=C2CCCCC2)cc1)N1CCOCC1 | x | 0.8% | -0.3 | 23 | -5 | -39% | -0.5
CCCn1c(C2CCCN2c2nc(C)cs2)nc2cc(Cl)c(Cl)cc21 (configuration not stated) | -4.2% | 3.9% | x | 10 | -10 | u | 1.0
C#CCNC(=O)C1=C[C@@H](C(C)(C)C)C[C@@H](OCc2ccc(CO)cc2)O1 | 1.7% | 1.1% | -2.2 | -4 | 23 | 15% | 0.9
COc1ccc(NC(=O)CN2CCN(CC(=O)Nc3ccc4c(c3)OCO4)CC2)cc1 | 0.8% | -2.0% | 0.0 | -9 | 3 | 13% | -1.2

SMILES | ClpP mod | PINK1 modulator | Menin-MLL FL inh | TRPML1 inh | TRPV1 PAM | Sfp inh | TRPML1 ag
CCn1nc(NC(=O)Cc2ccc(OC)cc2)c2cc3cccc(C)c3nc21 | x | 1.2% | -4.6 | 27 | x | 11% | 1.3
CSc1cccc(NC(=O)OC2CCCCCCCCCCC2)c1 | -1.1% | 24% | 2.0 | -5 | -1 | 12% | 0.1
COc1cc(NC(=O)c2cc3ccccc3o2)c(OC)cc1Cl | 16% | 21% | 2.9 | 14 | 2 | 2% | 2.7
CC[C@@H](C(=O)[C@@H](C)[C@@H](O)[C@H](C)CCc1ccc(C)c(O)c1C(=O)O)[C@H]1O[C@](CC)([C@H]2CC[C@](O)(CC)[C@H](C)O2)C[C@@H]1C | -29% | -0.7% | -5.6 | 17 | -11 | -17% | u
CSc1ccc(/C=C/C(=O)c2ccc(NC(=O)C(C)C)cc2)cc1 | -22% | -1.7% | 2.7 | -6 | 6 | 2% | 1.2
CCOc1ccc(-n2c(-c3ccc(OC)cc3)cc3c2CC(C)(C)CC3=O)cc1 | -24% | 1.2% | x | 66 | x | x | 3.4
CCOc1cc(C(=O)NC)cc(Br)c1OC | x | 0.5% | 5.2 | 21 | 9 | 17% | -0.3
COCC(=O)N(C)c1nnc(-c2ccccn2)s1 | 469% | 2.4% | 0.2 | 9 | -8 | 13% | -0.8
CCN(C(=O)C1CCC(CNS(=O)(=O)c2cccc3nsnc23)CC1)c1ccc(C)c(C)c1 (configuration not stated) | 2.4% | 0.5% | x | 65 | x | x | -0.7
CCC(=O)NCCCCCCCCCNC(=O)CC | -4.3% | 2.0% | 2.0 | -12 | 10 | -5% | 0.4

Source: PubChem BioAssay (National Center for Advancing Translational Sciences (NCATS))
